gsp antag = antagonists of gsp mutant (McCune-Albright syndrome); gsp-mutant cells, cAMP HTRF, 30 min; control for the full effect not named in the record; Potency, µM (doses to about 76.9 µM), without a hit: at the highest dose activity change, negative = inhibition, hits mostly inhibitors; 0.4% of 340,000 active; active = falling curve of any shape with a large fitted effect; inconclusive = falling curve, mostly with a smaller effect; inactive = flat or rising curve; cell line not stated here;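 note: intracellular cAMP measured with PDE inhibitor Ro 20-1724 present during compound exposure; potency is the fitted concentration of half-maximal effect; % is set by controls: 0 for no effect and ±100 for the full control effect; nearly all actives have a fitted effect of over 65% in size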
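Measurement of cellular cAMP by homogeneous time-resolved fluorescence following a 30 min compound exposure at 37C. The PDE inhibitor […] was present throughout; the assay buffer was DPBS with 0.05% BSA and 0.005% Tween 20.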
D2 ag = agonists of human D2 dopamine receptor (beta-arrestin) | P14416 | DiscoveRx PathHunter D2 beta-arrestin, luminescence, 90 min; 100% = 57 uM dopamine signal | activation, % (test concentration not listed) | 0.084% of 360,000 active | AID 624465; in the data active = activation above about 40%; inconclusive = about 15% to 40%; inactive = below about 15%; note: compound concentration not given in the record; the text of the record calls up to 30% inactive
Target sequence (P14416 whole entry, looked up): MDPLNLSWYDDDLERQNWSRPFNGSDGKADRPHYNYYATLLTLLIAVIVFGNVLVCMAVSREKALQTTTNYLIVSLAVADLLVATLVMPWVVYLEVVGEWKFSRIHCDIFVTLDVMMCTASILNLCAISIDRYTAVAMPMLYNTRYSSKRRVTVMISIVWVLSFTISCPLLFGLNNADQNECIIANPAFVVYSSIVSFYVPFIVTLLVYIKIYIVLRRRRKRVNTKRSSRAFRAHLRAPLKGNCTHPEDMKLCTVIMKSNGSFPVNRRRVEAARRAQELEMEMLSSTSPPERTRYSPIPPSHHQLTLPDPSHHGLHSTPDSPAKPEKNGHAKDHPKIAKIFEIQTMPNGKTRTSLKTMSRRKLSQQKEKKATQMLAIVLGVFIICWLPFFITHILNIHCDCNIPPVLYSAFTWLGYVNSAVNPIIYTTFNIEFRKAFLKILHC
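DiscoveRx PathHunter D2 beta-arrestin cells (2,100/well) attached overnight, then compound-stimulated 90 min at 37 C in HBSS/10 mM HEPES/0.1% Tween-20 buffer; beta-galactosidase complementation read by luminescence after 1 h at ambient temperature. Dopamine 57 uM final (EC100) as control.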
CtBP-E1A blk = inhibitors of CtBP/E1A interaction; AlphaScreen GST-E1A/His-CtBP binding, 1536-well; hits give low values; control for the full effect not named in the record; activity change, % (no concentration beside the values); 0.49% of 340,000 active; in the data active means activity change below about -65%; inconclusive means about -30% to -65%; inactive means above about -30%; note: % is set by controls: 0 for no effect and ±100 for the full control effect; compound concentration not given in the record
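GST-E1A and His-tagged CtBP (125 nM each as 5X stock) were preincubated with pin-transferred compound for 2 h at 37 °C in the dark, then glutathione donor and nickel acceptor beads were added for 1 h before AlphaScreen reading.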
D2 potentiator = positive allosteric modulators of human D2 dopamine receptor; P14416; potentiation, % (test concentration not listed); AID 624464; 0.23% of 360,000 active; DiscoveRx D2 beta-arrestin cells, luminescence, 90 min; 100% = 57 uM dopamine signal; active = potentiation of 50% or more; inconclusive = 30% to 50%; inactive = 30% or less;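 note: compound concentration not given in the record; tested on top of an EC20 dose of dopamine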
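D2 cells co-treated with compound plus 50 nM dopamine (EC20) for 90 min at 37 deg C to detect potentiation. Beta-arrestin recruitment was read as enzyme-fragment luminescence after 1 h at ambient temperature. Full response was set by 57 uM dopamine.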
gsp agonist = activates gsp, the McCune-Albright syndrome mutation. gsp mutant cells, cAMP HTRF, 30 min; control for the full effect not named in the record. Potency, µM (top dose mostly 76.9 µM), for inactives: top-dose activation (cAMP increase), most hits filed as activators. 0.13% of 340,000 active; active = well fitted activation curve with a large enough effect; inconclusive = small, poorly fitted or top-dose-only effect, or another doubt; inactive = no such curve, though single readings can be large or run the other way; cell line not stated here;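 note: phosphodiesterase inhibitor Ro 20-1724 added with compounds to block cAMP breakdown; potency is the fitted concentration of half-maximal effect; nearly all actives have a fitted effect of over 60% in size; about a fifth of the inactives were tested at one dose only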
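Cells stably selected in G418 were plated at 2000/well, grown 16-24 hr, then given compounds in DMSO with the PDE inhibitor […] (300 uM solution added) for 30 min at 37C; cAMP was read by HTRF.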
Six1-Eya2 inh = Six1/Eya2 interaction inhibition; activity change, % (no concentration beside the values); Q15475+O00167; AID 651725; 0.56% of 360,000 active; AlphaScreen GST-Six1/His-Eya2 binding, biochemical; hits give low values; control for the full effect not named in the record; in the data active = activity change below about -65%; inconclusive = about -30% to -65%; inactive = above about -30%; note: % is set by controls: 0 for no effect and ±100 for the full control effect; compound concentration not given in the record
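Homogeneous AlphaScreen proximity assay pairing GST-Six1 with His-tagged Eya2 (added as 5X mix: 250 nM and 500 nM) in 50 mM Tris pH 8.0, 300 mM NaCl, 1 mM TCEP. Glutathione donor and nickel acceptor beads; 1 h, 37 °C, dark.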
Active calls of the source: *; ? = inconclusive; · = not tested or not shown; [ ] = another dose, or the depositor's remark.

SMILES | gsp antag | D2 ag | CtBP-E1A blk | D2 potentiator | gsp agonist | Six1-Eya2 inh
CC(C)(C)NC(=O)C(c1ccc(O)cc1)N(C(=O)CCC(=O)Nc1nccs1)c1cccc(F)c1 (stereo not drawn) | 5% | 6.7 | 4 | -3 | ? | 4
CC(C)(C)C(=O)Nc1ccccc1C(=O)NCc1ccco1 | 4% | -3.3 | 4 | 4 | 29% | -3
O=C(O)CCC(=O)N1CCN(c2ccccn2)CC1 | 5% | 0.2 | -6 | 0 | 1% | 13
CC(=O)Nc1ccc(S(=O)(=O)NCC2CCCO2)cc1 (stereo not drawn) | -3% | 1.2 | -2 | -2 | 1% | 11
CC(C)(C)c1ccc(C2SCC(=O)N2c2cccc(C(=O)O)c2)cc1 (stereo not drawn) | -13% | 2.6 | · | 2 | -26% | 2
O=C(NC1CCN(Cc2ccccc2)CC1)c1cccc(S(=O)(=O)Nc2cc(C(F)(F)F)ccc2Cl)c1 | -15% | 0.0 | -8 | -24 | -4% | 0
CCOc1cccc(N2CCN(CCNC(=O)Nc3ccc(C)cc3)CC2)c1C | 1% | -4.2 | 0 | -2 | 15% | -7
O=C(COc1ccccc1)NNc1nc2ccccc2s1 | -1% | -0.2 | -10 | -3 | -44%[inhibitor] | -9
Cc1noc2ncnc(Oc3cc(Cl)ccc3Cl)c12 | -3% | 7.4 | -10 | -10 | -5% | 5
COc1cccc(CNC(=O)C2CCN(S(=O)(=O)c3ccc4c(c3)NC(=O)C(C)S4)CC2)c1 (stereo not drawn) | ? | 0.0 | -2 | 0 | ? | -1
COc1ccc2c(c1)CC/C(=C/c1cc(OC)c(OC)c(OC)c1)C2=O | -6% | 0.6 | 1 | 11 | 37% | 8
O=C(COC(=O)c1ccccc1Br)NC1CCCC1 | 5% | 0.9 | 4 | -6 | 12% | 5
C/C(CCN1CCc2nc(-c3ccccc3)c(-c3ccccc3)cc2C1)=N\OC[C@@H](C)[C@H](OCc1ccccc1)C(C)C | 11% | -4.3 | -6 | -23 | -54%[inhibitor] | ?
CC1(C)C(=O)Nc2ccccc2N1C(=O)COC(=O)c1cc(S(=O)(=O)N2CCOCC2)ccc1F | -2% | -1.4 | -9 | -3 | -10%[15.4 µM] | -1
CCN(CC)c1nc(Oc2ccc(C(=O)NN)cc2)nc(Oc2ccc(C(=O)NN)cc2)n1 | -6% | 5.8 | -28 | 0 | 2% | -17
CC(=O)NS(=O)(=O)c1ccc(N2C(=O)CC(Sc3nccc(C)n3)C2=O)cc1 (stereo not drawn) | 13% | -5.1 | 11 | -3 | 35% | 0
CC(=O)NC(c1cccc(F)c1)c1nc(-c2ccc(C)c(C)c2)cs1 (stereo not drawn) | · | -5.6 | -8 | -5 | · | 9
COc1ccc(CNC(=O)c2ccc3oc(C(C)C)nc3c2)cc1 | 4% | 0.0 | 0 | -7 | 3%[15.4 µM] | 6
CCCCCCCCNC(=O)CC(NS(=O)(=O)c1ccc(NC(C)=O)cc1)C(C)C (stereo not drawn) | -2% | -5.4 | 5 | -3 | -52%[inhibitor] | 22
CCOC(=O)N1CCN(C(=O)Cc2ccc(-n3c(=O)[nH]c4ccccc4c3=O)cc2)CC1 | 1% | 0.2 | 7 | 2 | 19% | 7

Three of the compounds above, with the structure last:
gsp antag | D2 ag | CtBP-E1A blk | D2 potentiator | gsp agonist | Six1-Eya2 inh | Structure
-6% | 0.6 | 1 | 11 | 37% | 8 | COc1ccc2c(c1)CC/C(=C/c1cc(OC)c(OC)c(OC)c1)C2=O
1% | 0.2 | 7 | 2 | 19% | 7 | CCOC(=O)N1CCN(C(=O)Cc2ccc(-n3c(=O)[nH]c4ccccc4c3=O)cc2)CC1
-2% | -5.4 | 5 | -3 | -52%[inhibitor] | 22 | CCCCCCCCNC(=O)CC(NS(=O)(=O)c1ccc(NC(C)=O)cc1)C(C)C (stereo not drawn)

(continued)
SMILES | gsp antag | D2 ag | CtBP-E1A blk | D2 potentiator | gsp agonist | Six1-Eya2 inh
COCCCNc1oc(-c2ccccc2Cl)nc1C#N | -24% | 0.7 | · | -4 | 6% | -7
C=CCOc1c(Br)cc(CNc2ccc(NC(=O)CCC)cc2)cc1OCC | -11% | -2.1 | -19 | 0 | -22% | ?
CC1CCN(C(=O)c2ccccc2SCC(=O)NCC2CCCCC2)CC1 | -8% | 1.2 | -3 | -3 | -10% | 3
O=C1CCCN1c1cc(Cl)cc(Cl)c1 | -2% | -4.7 | 4 | -18 | 19%[15.4 µM] | 16
CCOc1ccc2nc(SCC(=O)N3CCCCCC3)c(C#N)cc2c1 | 5% | 1.1 | 0 | -10 | ? | 22
O=C(CSc1nc2ncc(Cl)cc2[nH]1)NCC(=O)Nc1ccc(F)c(F)c1F | 6% | -2.9 | 0 | -14 | 21%[15.4 µM] | 2
Cc1ccc(C(C)C)c(OCc2nnc3n2CCCCC3)c1 | -5% | 0.3 | 2 | 3 | 1% | 0
CCn1c(SC(C)C)nnc1C1CCN(S(=O)(=O)c2ccc(OC)cc2)CC1 | -10% | 0.5 | 5 | 1 | 5% | 0
Cc1ccc2nc(Nc3ccc(Cl)cc3)c3nncn3c2c1 | 3% | 5.6 | 1 | 0 | 23% | 8
O=C(NC1CCCCC1)C(c1ccc2ncccc2c1)N(Cc1ccc(F)cc1)C(=O)c1cccs1 (stereo not drawn) | ? | 4.6 | -1 | ? | 0% | -4
CCOC(=O)Cn1nc(/C=C/c2ccc(C)cc2)ccc1=O | -7% | -3.9 | 10 | -1 | 2% | 11
COc1ccc(Br)cc1C(=O)N/N=C/c1ccc2c(c1)n(C)c(=O)n2C | 18% | -1.4 | -2 | 0 | 1%[15.4 µM] | -3
CC(NC(=O)COC(=O)c1ccc(Br)o1)c1ccccc1 (stereo not drawn) | 4% | 4.5 | -2 | -8 | -16%[15.4 µM] | 17
Cc1noc(C)c1COC(=O)CCCOc1ccc(Cl)cc1Cl | 3% | 2.7 | 43 | -3 | 6% | 48
CCOc1ccc(NC(=O)COC(=O)c2cc(C)oc2C)cc1 | -19% | 2.7 | -10 | -6 | -4% | 7
Cc1nc(C)c(C(=O)C2=C(O)C(=O)N(CCN(C)C)C2c2ccco2)s1 (stereo not drawn) | 1% | -4.2 | 0 | -7 | -16% | 2
Cc1[nH]c2ccccc2c1C(c1ccncc1)N1CCCCC1 (stereo not drawn) | 0% | 3.5 | 6 | 2 | 3%[15.4 µM] | -6
COc1cccc(/C=N/N2CCN(c3ccccc3OC)CC2)c1 | -10% | -1.6 | ? | -6 | 8% | ?
CCCCC[C@H](O)/C=C/C1C(=O)C=C[C@H]1C/C=C\CCCC(=O)OC (stereo partly drawn) | -5% | 3.1 | 2 | 0 | · | 2
CCN(CC)C(=O)COc1ccc(-c2nnc(N3CCCCC3)c3ccccc23)cc1 | -25% | -2.0 | -15 | -14 | 19% | -5
CC(C)CN(C(=O)CSc1nc2ccccc2o1)c1c(N)n(Cc2ccccc2)c(=O)[nH]c1=O | -1% | -0.2 | 20 | -11 | 8% | -4
NS(=O)(=O)c1ccc(CCNC(=O)C2CCN(S(=O)(=O)c3c(Cl)cccc3Cl)CC2)cc1 | -9% | -4.2 | 4 | -1 | 3%[15.4 µM] | -4
CCOC(=O)C1CCN(C(=O)/C(=C/c2ccccc2)NC(=O)c2ccccc2)CC1 | 7% | 2.7 | · | -30 | ? | 12
CC1(C(=O)NCc2cccnc2)CCN1C(=O)Cc1cccs1 (stereo not drawn) | · | -3.3 | 3 | -7 | · | 2
Cc1ccc(C2CC(=O)NC(SCc3ccccc3)=C2C#N)o1 (stereo not drawn) | -22% | -0.1 | -17 | -5 | -9% | -23
COc1ccc(CN(C)C[C@@H]2OCCCC[C@H](C)Oc3ccc(NC(=O)Nc4ccc(F)cc4)cc3C(=O)N([C@H](C)CO)C[C@H]2C)cc1 | · | -7.6 | -4 | 2 | -72%[inhibitor] | -11
COC(=O)c1sccc1NC(=O)COc1ccc(Cl)cc1Cl | 13% | -3.0 | 7 | -5 | -25% | 2
CCc1c(C)nc(SC/C=C/c2ccccc2)[nH]c1=O | 3% | 3.3 | · | -9 | -23% | 6
Cc1ccc2c(=O)cc(C(=O)Nc3ccc(S(=O)(=O)Nc4onc(C)c4C)cc3)oc2c1 | -5% | -3.8 | -23 | -5 | ? | -17
COc1ccc(CN2C[C@@H](CO)O[C@@H](n3cnc4c(NCc5cc(OC)c(OC)c(OC)c5)ncnc43)C2)cc1 | · | -1.3 | -25 | 2 | · | -5
COc1c(F)c(F)c(C(=O)Nc2ccc3oc(-c4ccncc4)nc3c2)c(F)c1F | 28µM* | -2.7 | 9 | 2 | -20% | 4
O=C(CNC(=O)c1cccs1)c1ccc([N+](=O)[O-])cc1 | 7% | 4.3 | -11 | 2 | 8% | 2
CC1(NC(=O)Nc2ccccc2)CCS(=O)(=O)C1 (stereo not drawn) | 6% | -1.0 | -2 | -13 | -4%[15.4 µM] | 1
COC(=O)C1=C(C)Nc2ccc(C)cc2S1 | -1% | -5.4 | -11 | -7 | 11% | -20
COCc1[nH]nc2c1C(c1ccccc1F)C(C#N)=C(N)O2 (stereo not drawn) | 7% | -1.4 | -3 | 0 | -1% | 12
COc1ccc(S(=O)(=O)N(CC(=O)NC2CCCC2)c2ccccc2OC)cc1 | -1% | -2.8 | 3 | -3 | 4% | -2
CC(C)Cc1nnc(NC(=O)CCC(=O)N2CCN(Cc3ccc(F)cc3)CC2)s1 | -3% | -1.3 | 1 | -2 | -9% | 0
CC1=NN(C(N)=S)C(=O)C1N=Nc1ccccc1Cl (stereo not drawn) | -13% | -6.1 | -2 | -1 | -10% | -9
Cc1cc(C)cc(N(C(=O)c2csnn2)C(C(=O)NC2CCCCC2)c2ccncc2)c1 (stereo not drawn) | -16% | -3.6 | -1 | -7 | 6%[15.4 µM] | -20
CC1Cc2ccccc2N1C(=O)Cn1cc([N+](=O)[O-])ccc1=O (stereo not drawn) | -4% | -3.6 | 0 | -11 | 5%[15.4 µM] | 1
CCN1CCN(CCNC(=O)c2ccc3c(c2)N(Cc2ccc(F)cc2)C(=O)/C(=C/c2ccccc2)S3)CC1 | -3% | 3.1 | -11 | -1 | 3%[15.4 µM] | -9
O=C(CSc1ccc2ccccc2c1)Nc1nc2ccccc2[nH]1 | 2% | -0.2 | 9 | 17 | ? | 4
Cc1ccc2nc(CSc3nc(C)ccc3C#N)[nH]c2c1 | 9% | 2.1 | -20 | 16 | ? | -21
CNc1ccc(-c2cccc([N+](=O)[O-])c2)cn1 | · | -2.9 | 0 | -2 | · | -16
COc1ccc(C2CC(=O)N3CN(c4ccccc4F)CSC3=C2C#N)cc1OC (stereo not drawn) | -7% | -2.5 | 1 | -6 | ? | -4
COc1ccc(NC(=O)c2ccccc2Cl)cc1NC(=O)CN1CCOCC1 | 3% | 0.8 | -1 | -16 | -26% | 10
O=C(CSc1nncc2ccccc12)N1CCOCC1 | 12% | -1.3 | 8 | -3 | 3% | 3

Source: PubChem (National Center for Advancing Translational Sciences (NCATS))
